High-throughput results: PubChem BioAssay, several laboratories
INS promoter inh = TRM-6 insulin promoter activity inhibition. TRM-6 cells (human fetal islet line), insulin promoter-eGFP reporter, imaging; reporter expression induced with tamoxifen. inhibition, % at 2 µM. 130,000 tested, 0.9% active;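 active means inhibition above the mean plus 3 SD, with well images judged a real hit on visual review, cut at about 60% in these data, passing the limit was not always enough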
RGS16-Gao HTS = regulators of human RGS16-Galphao interaction; O15492+P09471; bead-based flow cytometry RGS16-Galphao binding, fluorescence; actives lie on both sides; binding response (% of control), % at 10 µM; 220,000 tested, 0.38% active;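 active means below 25% or above 175%, edge rows of some plates excepted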;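 further: Galphao activated by GDP with aluminum fluoride before binding; 100% = wells without compound and 0% = beads without RGS; some results beyond the cut were filed as inactive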
Target sequence (O15492 whole entry, looked up): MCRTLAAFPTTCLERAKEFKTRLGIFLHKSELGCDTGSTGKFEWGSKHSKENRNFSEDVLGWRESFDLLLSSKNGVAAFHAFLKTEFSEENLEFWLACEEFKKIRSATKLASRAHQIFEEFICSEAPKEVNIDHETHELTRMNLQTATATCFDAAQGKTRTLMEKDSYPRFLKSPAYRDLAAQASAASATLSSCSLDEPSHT
Target sequence (P09471 whole entry, looked up): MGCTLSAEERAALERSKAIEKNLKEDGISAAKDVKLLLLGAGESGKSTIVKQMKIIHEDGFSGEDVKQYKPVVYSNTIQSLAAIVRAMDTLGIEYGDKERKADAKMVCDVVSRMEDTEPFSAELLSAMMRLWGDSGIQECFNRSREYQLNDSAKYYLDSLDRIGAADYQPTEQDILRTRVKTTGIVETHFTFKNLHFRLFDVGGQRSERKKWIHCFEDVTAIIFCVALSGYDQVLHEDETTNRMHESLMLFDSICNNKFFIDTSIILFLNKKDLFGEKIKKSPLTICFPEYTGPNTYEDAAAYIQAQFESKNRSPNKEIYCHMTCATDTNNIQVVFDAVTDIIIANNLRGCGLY
PKD1 inh = blocks activity of human protein kinase D1; 200,000 tested, 0.056% active; PKD1 kinase fluorescence polarization assay; inhibition, %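 (about 10 µM by stock and volumes)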; AID 797;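 active means inhibition of 50% or more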;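 further: controls were vehicle for no effect and a reference inhibitor for full effect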
HSV replic up = HSV replication enhancement. 220,000 tested, 0.005% active. maximum fold increase. HSV replication augmentation in cells, fold increase;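 active means peak rise of 1.5-fold or more in the series; tested in PC3 cells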;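 further: first round at 10 µM; read as green reporter fluorescence; hits show the peak of a series up to 25 µM; 1 = signal of infected wells without compound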
GALR2 agonist = GALR2 (human) receptor agonism; O43603; GALR2-expressing cells, agonist activation read-out; activation, %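 (tested at 5 µM)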; 140,000 tested, 0.48% active; AID 803;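 active means above mean plus 3 SD of all compounds, about 5% in these data, not always enough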;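 further: 0% = vehicle buffer wells and 100% = reference agonist at full effect; tested in CHO reporter cells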
Target sequence (O43603 whole entry, looked up): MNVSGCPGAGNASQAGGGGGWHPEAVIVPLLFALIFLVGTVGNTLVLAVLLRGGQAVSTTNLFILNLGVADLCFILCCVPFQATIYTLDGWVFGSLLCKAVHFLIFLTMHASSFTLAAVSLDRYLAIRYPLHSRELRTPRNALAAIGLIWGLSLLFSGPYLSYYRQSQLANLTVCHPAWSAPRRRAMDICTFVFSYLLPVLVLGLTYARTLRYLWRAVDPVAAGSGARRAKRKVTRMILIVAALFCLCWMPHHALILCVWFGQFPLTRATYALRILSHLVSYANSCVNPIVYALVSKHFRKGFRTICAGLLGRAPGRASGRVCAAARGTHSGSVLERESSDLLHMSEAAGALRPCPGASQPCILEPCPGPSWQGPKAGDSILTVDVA
INS promoter inh cell count = further read-out of INS promoter inh, marked with its call; normalized cell count, %; measured here: cell count, toxicity; reference of the scale not given here;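 cells exposed to compound for 48 h; stained nuclei by imaging scaled within each plate; lower means fewer cells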
HSV replic up primary fold = second read-out of HSV replic up, no call of its own (marks repeat the call); fold increase; compound at 10 µM; measured here: primary screen fold increase 10 uM; tested in PC3 cells;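 GFP signal in the first replicate; 1 = infected wells without compound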
Starred values were filed as active, the others as inactive; i = inactive; x = not tested or not shown.

Codes: A = INS promoter inh; B = INS promoter inh cell count; C = RGS16-Gao HTS; D = PKD1 inh; E = HSV replic up; F = HSV replic up primary fold; G = GALR2 agonist
Cc1ccccc1NC(=S)Nc1ccc(Br)cc1
  A = x	B = x	C = 110	D = -3	E = i	F = 1	G = -1.1
CC(O)[C@H]1CN=C(N)N1CCc1cc(C(F)(F)F)cc(C(F)(F)F)c1 (stereo partly drawn)
  A = x	B = x	C = 98	D = x	E = i	F = 0.94	G = x
Cc1ccc(Nc2ccccc2)nn1
  A = x	B = x	C = 70	D = x	E = i	F = 1	G = x
COc1cc(C=C2C(=O)c3ccccc3C2=O)cc(OC)c1
  A = x	B = x	C = 91	D = x	E = i	F = 1.7	G = x
CN(C)c1nnnn1-c1ccc(Cl)cc1
  A = 0	B = 128	C = 98	D = -4	E = x	F = x	G = x
CCC(C)NC(=O)CCS(=O)(=O)c1ccc2c(c1)n(C)c(=O)c(=O)n2C (stereo not drawn)
  A = x	B = x	C = 103	D = 3	E = i	F = 0.9	G = -0.6
CC(=O)c1cccc(NC(=O)CSc2nc(N3CCCCC3)nc(N3CCCCC3)n2)c1
  A = x	B = x	C = 100	D = -1	E = i	F = 0.91	G = x
CC(=O)C1=C(NC(=O)c2ccccc2F)C[C@@H]2[C@H]1C2(C)C
  A = -21	B = 64	C = 46	D = -2	E = i	F = 0.96	G = -2.4
CC(=O)N1CCCc2cc(S(=O)(=O)N3CCN(c4ccccn4)CC3)ccc21
  A = x	B = x	C = 96	D = -2	E = i	F = 0.88	G = -1.2
Cc1sc(CO)c(Sc2ccccc2)c1C(=O)O
  A = x	B = x	C = 100	D = -11	E = x	F = x	G = -0.3
CCN=C1SC(C(=O)Nc2cccc(C(=O)O)c2)CC(=O)N1CC (stereo not drawn)
  A = x	B = x	C = 99	D = -5	E = i	F = 0.77	G = -4.0
O=C1NCC(CN(c2ccccc2)c2ccccc2)O1 (stereo not drawn)
  A = -36	B = 119	C = 104	D = -2	E = i	F = 0.98	G = -0.8
CC(C)c1ccc2nc(N)sc2c1
  A = -122	B = 57	C = 105	D = 6	E = i	F = 0.84	G = x
Cc1ccc(-c2nnc(N3CCN(C(=O)Cn4c(=O)n(C)c5ccccc54)CC3)c3ccccc23)cc1
  A = 3	B = 169	C = 99	D = 0	E = i	F = 0.97	G = 0.1
O=C(Nc1ccc2c(c1)CCC2)c1cccc(S(=O)(=O)N2CCN(c3ccc(F)cc3)CC2)c1
  A = 35	B = 70	C = 96	D = -7	E = i	F = 0.79	G = -3.7
CCCNC(=O)Cc1ncn[nH]1
  A = x	B = x	C = 100	D = 1	E = i	F = 0.77	G = -1.9
COc1ccc(N/N=C(/Oc2ccc([N+](=O)[O-])cc2)C(C)=O)cc1
  A = 8	B = 100	C = 107	D = -6	E = i	F = 0.93	G = -2.6
Cc1cc(C)c(C#N)c(N2CCC(C(N)=O)CC2)n1
  A = x	B = x	C = 99	D = -10	E = i	F = 0.84	G = x
COc1ccc(N2C(=O)CC(n3cnc4ccccc43)C2=O)cc1 (stereo not drawn)
  A = 25	B = 32	C = 94	D = 6	E = i	F = 0.82	G = -2.0
Cc1ccc(S(=O)(=O)N[C@H](C(=O)OCC(=O)N2N=C(c3ccc(Cl)cc3)CC2c2ccco2)C(C)C)cc1 (stereo partly drawn)
  A = 13	B = 55	C = 98	D = -7	E = i	F = 0.98	G = -1.0
O=S1(=O)N=C(Nc2ccc(O)cc2)c2ccccc21
  A = x	B = x	C = 99	D = -8	E = i	F = 0.97	G = x
Cc1ccc(Oc2c(C=O)c3ccccc3n2C)cc1
  A = 60	B = 66	C = 105	D = -6	E = i	F = 1	G = -1.3
N#Cc1cc(-c2ccccc2)nc(Oc2ccc(Cl)cc2)n1
  A = -172	B = 173	C = 95	D = -6	E = i	F = 0.89	G = 0.7
COC(=O)c1cn(CCOc2ccccc2OC)c2ccccc12
  A = x	B = x	C = 89	D = -10	E = i	F = 1	G = -1.2
Cc1ccc(NC(=O)C2CCCN2C(=O)OC(C)(C)C)cc1C (stereo not drawn)
  A = x	B = x	C = 100	D = x	E = i	F = 1.1	G = x
C/C(=N\NC(=O)c1ccc(Cl)cc1)c1cccs1
  A = -144	B = 160	C = 111	D = -5	E = i	F = 0.9	G = x
CC1=Nc2ccc(Br)cc2C(c2ccccc2)N1CC(=O)NN (stereo not drawn)
  A = x	B = x	C = 100	D = -8	E = i	F = 1.1	G = x
Cc1cccc(N(CC(=O)N2CCN(c3ccccc3F)CC2)S(C)(=O)=O)c1
  A = -27	B = 115	C = 83	D = -7	E = i	F = 1.1	G = x
C/C(=N\NC(=O)CN(c1ccccc1Br)S(C)(=O)=O)c1cccs1
  A = 5	B = 152	C = 102	D = 3	E = i	F = 0.93	G = x
COC(F)(C(=O)Nc1ccc2c(c1)C(=O)NC2=O)C(F)(F)F (stereo not drawn)
  A = x	B = x	C = 96	D = -10	E = i	F = 0.62	G = -1.5
O=C(NS(=O)(=O)Oc1ccc(F)c(Cl)c1)OC[C@@H]1CCCN2CCCCC12 (stereo partly drawn)
  A = 5	B = 117	C = 96	D = 2	E = i	F = 1	G = x
CC(C)CCNC(=O)CN(C(=O)CCC(=O)Nc1ccccn1)c1ccc2c(c1)OCCO2
  A = 50	B = 34	C = 94	D = -3	E = i	F = 0.88	G = -2.1
CCC(=O)Nc1ccc(-c2nnc(SCC(=O)Nc3nccs3)n2C)cc1
  A = x	B = x	C = 100	D = -1	E = i	F = 0.91	G = 0.5
CC(=O)Nc1ccc(N2C(=O)CSC2c2c(F)cccc2Cl)cc1 (stereo not drawn)
  A = 8	B = 176	C = 99	D = -8	E = i	F = 0.92	G = -0.6
O=C(c1ccc(Cl)c([N+](=O)[O-])c1)N(Cc1cccc(Cl)c1)C1CCS(=O)(=O)C1 (stereo not drawn)
  A = -88	B = 137	C = 104	D = -13	E = i	F = 0.91	G = -1.0
CCN(CC)CCn1c(NCc2ccccn2)nc2ccccc21
  A = x	B = x	C = 97	D = -3	E = i	F = 0.92	G = -1.8
COc1cc(NC(=O)Nc2ccccc2)c(OC)cc1NC(=O)CN1CCCCC1
  A = 36	B = 112	C = 97	D = -7	E = i	F = 0.96	G = -0.3
CC(=O)c1ccc(NC(=O)c2ccccc2Sc2ncnc3sc(C)c(C)c23)cc1
  A = -13	B = 129	C = 96	D = 0	E = i	F = 1.1	G = -0.4
O=C(C1=C[C@H](c2ccccc2)C[C@H](OCc2ccc(CO)cc2)O1)N1CCN(Cc2ccccc2)CC1
  A = x	B = x	C = 102	D = 10	E = i	F = 0.91	G = x
COc1ccccc1Nc1nc(C)cc(=O)[nH]1
  A = -353	B = 36	C = 104	D = -11	E = i	F = 1	G = -0.8
COc1ccc(C(=O)NC(=S)Nc2cccnc2)cc1[N+](=O)[O-]
  A = x	B = x	C = 103	D = 0	E = i	F = 1.1	G = x
Brc1cccc(/C=N/Nc2nc(N3CCCCC3)nc(N3CCCCC3)n2)c1
  A = 25	B = 69	C = 143	D = -12	E = i	F = 0.99	G = x
Cc1cc(=O)[nH]c(-c2cccnc2)n1
  A = -7	B = 85	C = 103	D = 1	E = i	F = 0.91	G = x
CCOC(=O)/C=c1\s/c(=C\c2ccc(C(F)(F)F)cc2)c(=O)n1CC(=O)NCc1ccco1
  A = x	B = x	C = 107	D = 5	E = i	F = 0.85	G = -0.2
COc1ccc(CNC(=O)Cn2nc(-c3ccc4c(c3)OCCO4)ccc2=O)cc1
  A = x	B = x	C = 102	D = -7	E = i	F = 1.1	G = 0.3
CC1CCCN(Cc2c(O)ccc3c4c(c(=O)oc23)CCCC4)C1 (stereo not drawn)
  A = x	B = x	C = 103	D = x	E = i	F = 1	G = x
COC(=O)C1=C(SC)N(c2ccccc2)C(c2ccccc2)CC1=O (stereo not drawn)
  A = -10	B = 82	C = 59	D = -2	E = i	F = 1.1	G = -1.4
O=C1C(Cl)=C(Nc2ccc(F)cc2)C(=O)N1CCc1ccccc1
  A = -171	B = 110	C = 105	D = 3	E = i	F = 0.99	G = -0.6
Cc1ccc(-c2cnn(-c3cccc([N+](=O)[O-])c3)c2N)cc1
  A = -43	B = 114	C = 104	D = 0	E = i	F = 0.83	G = -4.2
N#CCOc1ccc2oc(-c3ccco3)cc(=O)c2c1
  A = -17	B = 119	C = 93	D = 0	E = i	F = 0.91	G = x

The results go on:
Codes: A = INS promoter inh; B = INS promoter inh cell count; C = RGS16-Gao HTS; D = PKD1 inh; E = HSV replic up; F = HSV replic up primary fold; G = GALR2 agonist
Cc1ccc(/C(O)=C2/C(=O)C(=O)OC2c2ccc(Cl)cc2)cc1 (stereo not drawn)
  A = 16	B = 60	C = 93	D = -3	E = i	F = 0.88	G = -1.1
O=C(C1=C(O)C(=O)N(c2ncccn2)C1c1cccs1)c1ccco1 (stereo not drawn)
  A = 7	B = 99	C = 96	D = 5	E = x	F = x	G = -1.0
CN(C)S(=O)(=O)c1ccc(C(=O)OCC(=O)Nc2cccnc2Cl)cc1
  A = -3	B = 141	C = 92	D = 2	E = i	F = 1	G = x
Cc1ccc(NC(=O)NN2CCOCC2)cc1
  A = x	B = x	C = 112	D = 10	E = i	F = 1	G = x
O=C(O)c1ccccc1NC(=O)N1CCOCC1
  A = x	B = x	C = 96	D = -2	E = i	F = 1	G = x
COc1ccc(-n2c(COc3cccc4ccccc34)nnc2SCC#N)cc1
  A = -17	B = 126	C = 83	D = -3	E = i	F = 0.47	G = 1.3
CCC1Oc2ccccc2N(CC(=O)NCCC2=CCCCC2)C1=O (stereo not drawn)
  A = x	B = x	C = 103	D = 1	E = i	F = 0.98	G = -3.7
C/C(=N/OC(=O)C1CC1)c1cc(-c2ccc(Cl)cc2)no1
  A = x	B = x	C = 98	D = -1	E = i	F = 1.1	G = x
CCN(CC)S(=O)(=O)N1CCC(C(=O)NCc2ccc3c(c2)OCO3)CC1
  A = 6	B = 118	C = 104	D = -9	E = i	F = 1.1	G = -0.6
COC(=O)[C@H](Cc1ccccc1)NC(=O)NCC1CCCO1 (stereo partly drawn)
  A = -12	B = 114	C = 99	D = -3	E = i	F = 0.97	G = -2.3
COc1cc(OC)cc(C(=O)N[C@H](C(=O)Nc2nc(-c3ccc(OC)c(OC)c3)cs2)C(C)C)c1
  A = x	B = x	C = 104	D = x	E = i	F = 0.82	G = x
O=C(COC(=O)c1ccccc1C(=O)c1ccc(Cl)cc1)NCCc1ccccc1
  A = x	B = x	C = 102	D = 0	E = i	F = 0.91	G = -0.5
C[C@H](NC(=O)c1nc[nH]c1C(=O)N[C@@H](C)c1ccccc1)C(=O)OC(C)(C)C
  A = x	B = x	C = 103	D = 0	E = i	F = 0.8	G = x

Filtered by structure, the entries above containing fluorine.
Codes: A = INS promoter inh; B = INS promoter inh cell count; C = RGS16-Gao HTS; D = PKD1 inh; E = HSV replic up; F = HSV replic up primary fold; G = GALR2 agonist
CC(O)[C@H]1CN=C(N)N1CCc1cc(C(F)(F)F)cc(C(F)(F)F)c1 (stereo partly drawn)
  A = x	B = x	C = 98	D = x	E = i	F = 0.94	G = x
CC(=O)C1=C(NC(=O)c2ccccc2F)C[C@@H]2[C@H]1C2(C)C
  A = -21	B = 64	C = 46	D = -2	E = i	F = 0.96	G = -2.4
O=C(Nc1ccc2c(c1)CCC2)c1cccc(S(=O)(=O)N2CCN(c3ccc(F)cc3)CC2)c1
  A = 35	B = 70	C = 96	D = -7	E = i	F = 0.79	G = -3.7
Cc1cccc(N(CC(=O)N2CCN(c3ccccc3F)CC2)S(C)(=O)=O)c1
  A = -27	B = 115	C = 83	D = -7	E = i	F = 1.1	G = x
COC(F)(C(=O)Nc1ccc2c(c1)C(=O)NC2=O)C(F)(F)F (stereo not drawn)
  A = x	B = x	C = 96	D = -10	E = i	F = 0.62	G = -1.5
O=C(NS(=O)(=O)Oc1ccc(F)c(Cl)c1)OC[C@@H]1CCCN2CCCCC12 (stereo partly drawn)
  A = 5	B = 117	C = 96	D = 2	E = i	F = 1	G = x
CC(=O)Nc1ccc(N2C(=O)CSC2c2c(F)cccc2Cl)cc1 (stereo not drawn)
  A = 8	B = 176	C = 99	D = -8	E = i	F = 0.92	G = -0.6
CCOC(=O)/C=c1\s/c(=C\c2ccc(C(F)(F)F)cc2)c(=O)n1CC(=O)NCc1ccco1
  A = x	B = x	C = 107	D = 5	E = i	F = 0.85	G = -0.2
O=C1C(Cl)=C(Nc2ccc(F)cc2)C(=O)N1CCc1ccccc1
  A = -171	B = 110	C = 105	D = 3	E = i	F = 0.99	G = -0.6
